Calb biofilm kill: mixtures killing C. albicans biofilm; C. albicans biofilm persisters + clotrimazole, fluorescence viability; primary screen in compound mixtures of four per well; inhibition, % at 7.6 µM; 0.02% of 120,000 active; AID 1242;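 active means inhibition above 30.3% in the primary screen of four-compound pools, then above 30% when the compound was retested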;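 further: compounds exposed to preformed 24 h biofilms for 48 h; the number belongs to the whole pool; some results filed as inactive read as strong as hits; inactives centre near 12; 0% = biofilm with clotrimazole alone and 100% = kill control; retested singly at about 60 µM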
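Assay system: C. albicans biofilms / Medium: RPMI/MOPS medium, pH 7.0 / Schedule: biofilm formation 24 h, compound exposure 48 h, 37 °C / Measured by: Alamar Blue fluorescence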
* marks the source's active call; other numbers are inactive results. This is a subset; count on the stated rates, not on these rows.

smiles | Calb biofilm kill
CCN(CC)CCNc1nc(-c2ccc(OC)cc2)c(-c2ccc(OC)cc2)s1 | 13
CCCCOC(=O)Nc1nnc(C(C)C)s1 | 5
CCCc1ccc(Oc2coc3cc(OCC(=O)Nc4ccccc4C)ccc3c2=O)cc1 | 19
C(=C\c1ccco1)/c1ccc2ccccc2n1 | 18
COc1cccc(C(=O)N2CCN(Cc3nc(CC4CC4)no3)CC2)c1 | 20
CC(OC(=O)c1cccc(S(=O)(=O)Nc2cccc(C(F)(F)F)c2)c1)C(=O)Nc1ccc2c(c1)OCCO2 (stereo unspecified) | 7
CCOC(=O)N1CCN(C(=O)c2ccc(NS(=O)(=O)c3ccc(F)cc3)cc2)CC1 | 18
O=c1c2cc(NC(=S)NCc3cccnc3)ccc2nc2n1CCCCC2 | 13
CCn1nc([N+](=O)[O-])c2c(-c3nc4ccccc4o3)c(N)n(CCCOC)c2c1=O | 13
CC(=O)c1cc(N2CCC(C(=O)O)CC2)ccc1[N+](=O)[O-] | 13
O=C(CCN1C(=O)c2ccccc2C1=O)C1=NN[C@@H]2C(=O)N(c3ccc4c(c3)OCO4)C(=O)[C@H]12 | 16
CCN(CC)S(=O)(=O)c1cccc(NC(=O)CN(C)Cc2cccc(OC)c2)c1 | 14

Going on with the list:
smiles | Calb biofilm kill
Cc1[nH]c2ccccc2c1/C=N/NC(=O)Nc1ccccc1 | 10
Cc1cc(C)n(-c2nnc(Cl)c3ccccc23)n1 | -2
CC1(C)CCCN(Cc2c(O)ccc3c(=O)c(-c4nc5ccccc5s4)c(N)oc23)C1 | 11
CC(=O)c1ccc(NC(=O)C(C)NCc2ccccc2Cl)cc1 (stereo unspecified) | 11
COc1ccc(-c2nnc(SCC(=O)NCCc3ccccc3)o2)cc1 | 13
C/C=C(\C)C(=O)NCCN1C2=NC[C@@H](C)N2C[C@H]1Cc1ccc(O)cc1 | 17
COc1ccc(N2CCN(S(=O)(=O)c3ccc(-n4cnnn4)c(C)c3)CC2)cc1 | 10
CCN(CC)C(=O)CC(c1ccc2c(c1)OCO2)c1c(OC)cc(OC)c2c(-c3ccccc3)cc(=O)oc12 (stereo unspecified) | 16
CCOC(=O)c1cc(NC(=O)Nc2nccs2)c(C)nc1C | 5
CC(=O)Nc1sc(-c2ccc(Cl)cc2)nc1-c1ccccc1 | 22
COc1ccc2cc(CCNC(=O)CC(C)(C)C)c(=O)[nH]c2c1 | 11
COc1ccc2c(c1OC)C(=O)OC2Nc1nc(-c2cc3cc([N+](=O)[O-])ccc3oc2=O)cs1 (stereo unspecified) | 22

Exported with each value named: entries from further up.
C(=C\c1ccco1)/c1ccc2ccccc2n1
  Calb biofilm kill: 18

COc1cccc(C(=O)N2CCN(Cc3nc(CC4CC4)no3)CC2)c1
  Calb biofilm kill: 20

(listing goes on)
smiles | Calb biofilm kill
Cc1ccc(/C=N/N=C/c2ccc(C)s2)s1 | 18
COc1ccccc1N1CCN(Cc2c[nH]c3ccccc23)CC1 | 13
Cc1ccc([N+](=O)[O-])cc1S(=O)(=O)NCCc1c(C)[nH]c2ccccc12 | 5
CC(=O)c1c(N2CCOCC2)nc2ccc(Cl)cc2c1-c1ccccc1 | 28
COc1ccc(Nc2cc(Cl)ccc2C(=O)O)cn1 | 20
O=C(NCCCn1ccnc1)C(=O)NCC(c1ccco1)N1CCN(c2ccccc2)CC1 (stereo unspecified) | -13
O=C(CN1CCN(S(=O)(=O)c2ccc(Br)cc2)CC1)N/N=C/c1ccc(Cl)c([N+](=O)[O-])c1 | 22
COc1ccc(C(C(=O)NC2CCCCC2)N(CC2CCCO2)C(=O)C2COc3ccccc3O2)cc1OC (stereo unspecified) | 12
Clc1ccccc1Cn1nnc(-c2ccccc2)n1 | 12
COc1ccc(COCC(O)CN2CCC(CN3C(=O)c4cccc5cccc(c45)C3=O)CC2)cc1OC (stereo unspecified) | 15
Cc1ccc(S(=O)(=O)NNC(=O)Nc2cccc3ccccc23)cc1 | 13
COc1ccc(-n2c(=O)n(Cc3ccccc3)c(=O)c3[nH]cnc32)cc1 | 18

(further entries)
smiles | Calb biofilm kill
CCNC(=O)/C(C#N)=C/c1c(N2CCN(Cc3ccc4c(c3)OCO4)CC2)nc2c(C)cccn2c1=O | -2
CCO[C@@H]1OC(C(N)=O)=C[C@H](c2ccc(Br)cc2)[C@H]1CCCO | 8
O=C(NCc1cccnc1)c1ccc2c(c1)N(Cc1ccccc1)CCS2 | 4
Fc1c(F)c(F)c(/C=N/NC(=S)Nc2cccnc2)c(F)c1F | 0
NC(=O)CSc1nnc(-c2cccc(S(=O)(=O)N3CCCCC3)c2)o1 | 11
Clc1ccccc1COc1ccc(/C=N/n2cnnc2)cc1 | 7
O=C(CSc1ccsc1[N+](=O)[O-])N1CCN(c2ccccc2)CC1 | 23
COCCNC(=O)CSc1nc2ccccc2c(=O)n1CCC(=O)N1CCN(c2ccccc2)CC1 | 13
NC(=O)c1ccc[n+](Cc2ccccc2)c1 | 19
C=CCNC(=O)c1cc2c(=O)n3cc(C)ccc3nc2nc1NCC1CCCO1 (stereo unspecified) | 17
COc1cc(OC)cc(C(=O)NNC(=S)NC2CC2)c1 | 10
COC(=O)c1cc(NC(=O)c2cc(C)oc2C)cc(C(=O)OC)c1 | 18

Additional entries:
smiles | Calb biofilm kill
O=C(NCCCN1CCN(CCCNC(=O)c2cccc(Cl)c2)CC1)c1cccc(Cl)c1 | 3
O=S(=O)(Nc1nc2ccccc2nc1NCC1CCCO1)c1ccc(F)cc1 (stereo unspecified) | 17
COc1ccccc1NC(=O)COc1ccccc1C(=O)Nc1ccccc1 | -10
O=C(O)COc1ccccc1/C=N/NC(=O)Cc1csc(Nc2cccc(C(F)(F)F)c2)n1 | 12
COc1ccc(OC)c(NC(=O)COC(=O)CCCN2C(=O)c3ccccc3C2=O)c1 | 21
CCOC(=O)/C=C/C(=O)Nc1ccc(Oc2ccccc2)cc1 | 22
Cc1cc(C)c(S(=O)(=O)NCC(=O)NCc2ccccn2)c(C)c1 | 9
Cc1nc2ncnn2c(C)c1Cc1cccc(C(F)(F)F)c1 | 19
COc1ccc(NC(=S)N2CCC(c3nc4ccccc4o3)CC2)c(OC)c1 | 11
O=C(N/N=C/c1ccccc1OC(=O)N1CCOCC1)c1cccs1 | 20
CCCNC(=O)COC(=O)c1ccccc1C(=O)N(C)C1CCCCC1 | 4
CCc1ccc(NC(=O)COC(=O)CCCC2=NS(=O)(=O)c3ccccc3N2)cc1 | 22

(further entries)
smiles | Calb biofilm kill
COc1ccc2[nH]c(C(=O)NCc3ccccc3)cc2c1 | 8
COc1ccc(C2=NNC(c3cc(Cl)cc4c3OCOC4)C2)c(O)c1 (stereo unspecified) | 5
CC(=O)c1ccc(NC(=O)c2ccc(COc3ccccc3[N+](=O)[O-])o2)cc1 | 17
COC(=O)c1cc(C(=O)OC)cc(N2C(=O)CC(NNC(=O)c3ccccc3Cl)C2=O)c1 (stereo unspecified) | 14
CC(C)c1cc(C(=O)N/N=C/c2ccco2)n[nH]1 | 7
CC1CN(Cc2cnc(Cl)s2)CC(C)O1 (stereo unspecified) | 22
O=C(Nc1ccc[n+](CC(=O)c2cccc3ccccc23)c1)c1ccccc1 | -1
Cc1ccc(S(=O)(=O)CCC(=O)Nc2ccc(F)cc2)cc1 | 30
COc1ccc(-n2nnnc2SCC(=O)Nc2ccccc2N2CCOCC2)cc1 | 10
CC1CN(C2=Nc3cccc4cccc2c34)CC(C)O1 (stereo unspecified) | 5
CCOC(=O)c1c(-c2ccccc2Cl)csc1NC(=O)CSc1nc(C)cc(=O)[nH]1 | 5
CCCc1nnc(-c2cc(OC)c(OC)c(OC)c2)o1 | 10

Continued:
smiles | Calb biofilm kill
Cc1ccc(N2C(=O)C3C4C=CC(CNC(=S)Nc5cccc(Cl)c5)(O4)C3C2=O)cc1 (stereo unspecified) | 11
COc1ccc(N(CC(=O)NC2CCCC2)C(=O)Cn2nnc(-c3ccc(OC)c(OC)c3)n2)cc1 | 25
COc1ccc(C(=O)C[n+]2cccc(C)c2C)cc1[N+](=O)[O-] | 9
O=C(O)c1sccc1S(=O)(=O)N1CCN(c2ccc(C(F)(F)F)cn2)CC1 | 6
CCCC(=O)NCc1ccncc1 | 4
CCOc1ccccc1CNC(CC)CO (stereo unspecified) | 20
CCN(CC)c1ccc(/C=N/NC(=O)Nc2ccccc2)cc1 | 2
O=C(NCc1ccco1)c1ccc(-c2cccc(Cl)c2)o1 | 30
CC1=NNC(=O)C1CC(=O)N/N=C(\C)c1cccs1 (stereo unspecified) | 11
CC(C)(C)c1ccc(C(=O)Oc2ccccc2CCC(=O)O)cc1 | 9
Cc1ccc(CC(=O)Nc2cccnc2)cc1 | 13
O=C(COc1cccc2ccccc12)Nc1cc(S(=O)(=O)N2CCOCC2)ccc1N1CCOCC1 | -1

More records.
smiles | Calb biofilm kill
CSc1ccc(CN(C)CC(=O)NC(C)c2ccccc2)cc1 (stereo unspecified) | -5
Cc1csc(NC(=O)C2CCCCN2S(=O)(=O)c2ccccc2)n1 (stereo unspecified) | 7
CCOCCCn1c(=NC(=O)c2cccs2)c(C#N)cc2c(=O)n3ccccc3nc21 | -11
CC1=CCC2C(=O)N(c3ccccc3OC(=O)c3ccccc3F)C(=O)C2C1 (stereo unspecified) | 19
NC(=O)C1CC(=O)N(c2ccc(OCc3ccccc3Cl)cc2)C1 (stereo unspecified) | 4
Cc1ccc(S(=O)(=O)NCC(=O)NCC(=O)OC(C(=O)NC(N)=O)C(C)C)cc1C (stereo unspecified) | 19
Cc1cc(/C=N\NC(=O)CC(=O)NC2CCCCC2)c(C)n1-c1cccc(Cl)c1Cl | 10
O=C(c1ccccc1)N1CCn2c(nc3ccccc32)C1 | 11
COc1cc(/C=N/N=C(\N)c2nonc2N)ccc1O | 14
CCCSc1nc(C)cc(C)c1S(C)(=O)=O | 15
CN(C)NC(=S)NC1CCS(=O)(=O)C1 (stereo unspecified) | 16
Cc1ccc(C)c(Nc2nc3c(S(=O)(=O)c4ccccc4)nnn3c3ccccc23)c1 | 11

(more compounds)
smiles | Calb biofilm kill
CN(C)CCNC(=O)c1scc2c1CCCC2 | 12
O=C(C1CCCO1)N1CCN(C(=S)NC2CC2)CC1 (stereo unspecified) | 8
Cc1cc(C)n(CCC(=O)N/N=C/c2cccc([N+](=O)[O-])c2)n1 | 20
O=C(Cc1ccc([N+](=O)[O-])cc1)Nc1cc(C(F)(F)F)cc(C(F)(F)F)c1 | 17
COc1ccc(/C=N/c2sc3c(c2C#N)CCN(Cc2ccccc2)C3)c(O)c1 | 8
C1CCC(C23CC4CC(CC(C4)C2)C3)NC1 (stereo unspecified) | 21
Cc1ccc(C(=O)NC2CCCCNC2=O)cc1C (stereo unspecified) | 8
O=C(N/N=C1\CC2CC=CC12)c1ccc(COc2ccccc2)cc1 (stereo unspecified) | 9
O=[N+]([O-])c1ccc(N2CCN(CCOCCO)CC2)c([N+](=O)[O-])c1 | 24
COc1ccc(NC(=S)N(CCO)Cc2cc3c(C)cc(C)cc3[nH]c2=O)cc1 | 22
CCOC(=O)C1(Cc2cccc(OC)c2)CCN(Cc2ccc(OC)c(O)c2)CC1 | 23
CCNc1nc(=S)nc(NCc2ccccc2)[nH]1 | 22

As a short view, some entries already given.
smiles | Calb biofilm kill
CCCSc1nc(C)cc(C)c1S(C)(=O)=O | 15
CN(C)NC(=S)NC1CCS(=O)(=O)C1 (stereo unspecified) | 16
Cc1ccc(C)c(Nc2nc3c(S(=O)(=O)c4ccccc4)nnn3c3ccccc23)c1 | 11
CN(C)CCNC(=O)c1scc2c1CCCC2 | 12
O=C(C1CCCO1)N1CCN(C(=S)NC2CC2)CC1 (stereo unspecified) | 8
Cc1cc(C)n(CCC(=O)N/N=C/c2cccc([N+](=O)[O-])c2)n1 | 20
O=C(Cc1ccc([N+](=O)[O-])cc1)Nc1cc(C(F)(F)F)cc(C(F)(F)F)c1 | 17
COc1ccc(/C=N/c2sc3c(c2C#N)CCN(Cc2ccccc2)C3)c(O)c1 | 8
C1CCC(C23CC4CC(CC(C4)C2)C3)NC1 (stereo unspecified) | 21
Cc1ccc(C(=O)NC2CCCCNC2=O)cc1C (stereo unspecified) | 8
O=C(N/N=C1\CC2CC=CC12)c1ccc(COc2ccccc2)cc1 (stereo unspecified) | 9
O=[N+]([O-])c1ccc(N2CCN(CCOCCO)CC2)c([N+](=O)[O-])c1 | 24
COc1ccc(NC(=S)N(CCO)Cc2cc3c(C)cc(C)cc3[nH]c2=O)cc1 | 22
CCOC(=O)C1(Cc2cccc(OC)c2)CCN(Cc2ccc(OC)c(O)c2)CC1 | 23
CCNc1nc(=S)nc(NCc2ccccc2)[nH]1 | 22

Continued:
smiles | Calb biofilm kill
Cc1noc(C)c1COc1ccc(C(=O)OC(C)C(=O)Nc2ccc(S(=O)(=O)N3CCOCC3)cc2)cc1 (stereo unspecified) | 12
Cn1c(CNC(=O)OC(C)(C)C)n[nH]c1=S | 22
Cc1ccc(C(=O)NC(=S)NCC2CCCO2)cc1Br (stereo unspecified) | 12
O=C(Nc1ccc(CN2CCOCC2)cc1)c1ccc(-c2ccc(Cl)cc2Cl)o1 | 0
CC1CCN(S(=O)(=O)c2ccc(C(=O)NCc3cccnc3)cc2)CC1 | 9
CCOc1cc(NC(=O)c2cccs2)c(OCC)cc1NC(=O)CCC(=O)NCc1ccccn1 | 10
CCN(CC)Cc1ccccc1Sc1ccccc1 | 10
C=CCNC(=O)/C(C#N)=C/c1ccc(OS(=O)(=O)c2ccc(C)cc2)c(OC)c1 | 12
Cc1ccc(S(=O)(=O)Nc2ccncc2)c(C)c1N(C)S(=O)(=O)c1ccc(Cl)cc1 | 10
COc1cccc(OC2OC3COC(C)(C)OC3C(O)C2NC(C)=O)c1 (stereo unspecified) | 4
Cn1c(=O)n(C)c2cc(NC(=O)COc3ccc(Cl)cc3)ccc21 | 15
C=CCNC(=O)/C(C#N)=C/c1ccccc1[N+](=O)[O-] | 28
CC(O)CNc1cnccn1 (stereo unspecified) | 0
O=C(c1cccc(S(=O)(=O)N2CCCC2)c1)N1CCN(c2ncccn2)CC1 | 11

Compound activity as filed in PubChem BioAssay.
